Bioassay records as filed in PubChem BioAssay.
RN4220 kill: growth inhibition of S. aureus RN4220, primary screen, OD600. 16 h. hit rate 0.33% among 330,000. inhibition, % (test concentration not listed);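 active = z-score of -3 or lower and OD600 up to 0.18 on both plates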;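 also: plate controls were untreated cells for no effect and reference antibiotic for full effect; stock transfer was 100 nL into about 80 µL; one replicate is shown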
Mtb hypoxia rep: PubChem AID 1159583 | fluorescence inhibition, % (no concentration beside the values) | M. tuberculosis hypoxia-regulated fluorescent reporter, fluorescence | hit rate 0.1% among 300,000;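 active = 35 to 45% if threefold the growth effect, above 45% if 1.5-fold the growth effect; inactive = the rest, general growth blockers included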;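 also: wells of about 50 µL received 100 nL stock; 0% = vehicle wells and 100% = reference inhibitor wells; whole bacteria with a GFP reporter of the hypoxia response; strong numbers were not always called active; many hits fall short of the cut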
BJeLR lethal: MLPCN primary cell-based screen for lethality selective to Ras in HRASV12 cells; hit rate 0.17% among 300,000; inhibition, % (concentration not given with the values); AID 1554, 2009; BJeLR (HRASV12) viability, CellTiter-Glo ATP luminescence, 48 h; reference of the scale not given here;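 active = replicate mean above 50%; inconclusive = above 50% but judged a plate artefact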;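 also: 50 nL library stock added to about 25 µL; numbers are from one replicate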
Autofluor counter: compound fluorescence in toxin protease inhibitor counterscreen; hit rate 3.1% among 360,000; compound autofluorescence counterscreen, microsphere flow cytometry; active compounds read high; fluorescence intensity (no concentration beside the values);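 active = at least 3 SD above the mean of all compounds, about 16000 in these data; inconclusive = too few beads counted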;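 also: 100 nL of 1 mM stock went into each well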
ugtP null kill: growth inhibition of ugtP-null S. aureus, primary screen, RN4220 ugtP deletion, OD600; growth inhibition, % (concentration not given with the values); hit rate 0.54% among 330,000; 16 h; some inactives read as strong as hits;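 active = z-score under -3 and OD600 up to 0.15 on both plates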;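 also: plate controls were untreated wells for no effect and antibiotic for full effect; wells of about 80 µL received 100 nL stock; the first replicate is given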
PrP 5UTR inh: inhibition of PrP 5' UTR reporter expression | cell-based PrP 5' UTR mRNA reporter, plate reader | inhibition, % (no concentration beside the values) | hit rate 0.35% among 340,000 | AID 488862, 2010;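 active = every replicate at 50% or more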;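 also: 0 = median of the neutral control wells; tested in H4 reporter cells; numbers are from one replicate; inactives centre near -14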
Mtb hypoxia rep growth: recorded beside Mtb hypoxia rep, whose call it bears; growth inhibition, %; measured here: M. tuberculosis growth (absorbance);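 0% = vehicle and 100% = reference antibiotic; read after six days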
An asterisk follows results filed as active; ? = inconclusive; · = not tested or not shown.

SMILES | RN4220 kill | Mtb hypoxia rep | Mtb hypoxia rep growth | BJeLR lethal | Autofluor counter | ugtP null kill | PrP 5UTR inh
COC(=O)C1=C(C)N(Cc2ccccc2)C(=NCCCCO)NC1CCc1ccccc1 (configuration not stated) | 2.0 | 9 | 11 | · | · | 4 | ·
CCc1ccc(C2CC(c3ccc(Cl)cc3)=NNC2=O)cc1 (configuration not stated) | 7.5 | · | · | -4 | 2282 | -8 | 4
COc1ccc(C)c2sc(=NC(=O)c3ccccc3)n(C)c12 | -8.1 | 18 | 18 | 18 | 5690 | -4 | -87
COC(=O)CS(=O)(=O)c1cc(Br)cc2c1N(C(C)=O)CC2 | -2.9 | · | · | -1 | 2741 | 9 | -13
COc1cc(C(=O)NCCC(C)C)ccc1OCc1ccc(Cl)cc1Cl | 15 | 3 | 18 | 0 | 2168 | 12 | -18
CCOc1cc2[nH]c(=O)n(CCC(=O)NCc3ccc(OC)cc3)c(=O)c2cc1OCC | 6.3 | 12 | 0 | -1 | 4318 | 11 | 1
O=C(c1ccccc1)c1ccc(OCC(O)CNCc2ccc(Cl)cc2)cc1 (configuration not stated) | -6.6 | -6 | 0 | 1 | 3802 | -11 | -44
CCCN(C(=O)Cc1coc2cc(OC)ccc12)C1CCS(=O)(=O)C1 (configuration not stated) | 7.1 | -3 | -1 | · | 3895 | -4 | -5
OCC(O)C(O)C(O)C(O)CO (configuration not stated) | 10 | 6 | 4 | · | · | 0 | ·
CN(C)c1ccc(/C=N/O)cc1 | · | · | · | 4 | 4014 | · | -24
COc1cc(/C=C(/C#N)c2nc3ccccc3[nH]2)ccc1OCC(=O)Nc1ccccc1C | 6.8 | 2 | 4 | · | 5175 | -12 | -8
O=C(CSc1nc2ccc([N+](=O)[O-])cc2[nH]1)NC1CCCCCC1 | · | · | · | 18 | 9146 | · | -26
CCc1ccc(/C=C2/Sc3ccccc3N(CC(=O)NCCCN3CCOCC3)C2=O)cc1 | 0.6 | -7 | -2 | 1 | 5940 | 4 | 0
O=C(CNCCO)N1CCc2ccccc21 | 1.5 | · | · | -4 | 2523 | 1 | -17
COc1ccccc1NC(=O)C(NC(=O)OC(C)(C)C)C(C)OCc1ccccc1 (configuration not stated) | 4.5 | 4 | 8 | 2 | 10871 | 6 | -40
COc1cccc(C=NN2CCN(C)CC2)c1 | 4.3 | 18 | -5 | · | · | 6 | ·
COc1ccc(Cl)c(NCCC(=O)O)c1 | 3.5 | 10 | 5 | -3 | ? | 5 | -16
CC(C)(C)c1ccc(C(=O)NC(CC(=O)O)c2ccc(OC3CCCC3)cc2)cc1 (configuration not stated) | -5.2 | 5 | 1 | -1 | 3670 | 19 | -14
COc1ccccc1N1CCN(N=Cc2ccc(C)o2)CC1 | -0.2 | 2 | 4 | · | · | 0 | ·
Cc1ccc(/C=C/C(=O)Nc2nccs2)o1 | 13 | 11 | 5 | 6 | 7462 | 5 | -7
C[C@@H]1C=C(C(=O)N2CCN(Cc3ccc4c(c3)OCO4)CC2)O[C@H](OCCCCO)C1 | · | · | · | 6 | 3778 | · | -8
CC(Oc1cc(F)ccc1[N+](=O)[O-])C(=O)Nc1ccc(S(=O)(=O)N2CCCC2)cc1 (configuration not stated) | -1.3 | 2 | 1 | 8 | 4678 | -13 | 7
O=C(NCCCCc1ccccc1)c1ccccc1 | 6.5 | 22 | 20 | 8 | 4263 | 4 | -21
O=C(COC(=O)c1ccccc1O)NC12CC3CC(CC(C3)C1)C2 | 1.7 | 8 | 7 | · | ? | -8 | -60
CCOc1ccccc1C(=O)Nn1c(C2CCC2)nc2ccccc2c1=O | 1.5 | -4 | 12 | 4 | 11628 | -15 | -1
CC1CCC(C(C)C)C(OC(=O)C[n+]2cc(-c3ccc(Cl)cc3)n3c2CCCCC3)C1 (configuration not stated) | 100* | · | · | 11 | 4731 | 101* | -22
FC(F)(F)c1cnc(N2CCC(=NOCc3ccc(Cl)cc3)CC2)c(Cl)c1 | -3.4 | 3 | 3 | 8 | 15078 | 30 | -7
COC(=O)c1cc(NC(=O)c2cc(C(C)(C)C)nn2Cc2cccc(C)c2)ccc1N1CCOCC1 | 3.6 | 0 | -2 | -3 | · | 11 | -8
COc1ccc(N2C(=O)C(Cl)=C(Nc3ccc(OC)cc3OC)C2=O)cc1 | 1.5 | -3 | 3 | 3 | 3364 | 4 | -18
Cc1ccc(S(=O)(=O)N2CCCCC2)cc1C(=O)OC(C)C(=O)NCC1CCCCC1 (configuration not stated) | 3.1 | 9 | 2 | · | ? | 6 | -22
Cc1cccc(NC(=O)COc2ccc(Br)cc2)n1 | 9.6 | 2 | 0 | 3 | 15643 | 11 | -3
COCCNC(=O)c1onc(CCl)c1C(=O)OC | 1.8 | 23 | 25 | -4 | 4619 | -1 | -36
CCCn1c(C2CCCN2c2nc(-c3ccc(OC)cc3)cs2)nc2ccccc21 (configuration not stated) | -22 | 3 | 0 | 6 | 3887 | -11 | -9
COc1cccc(NC(=O)N2CCCC2C(=O)NCc2ccccc2F)c1 (configuration not stated) | 1.2 | 16 | -3 | -1 | 4075 | 1 | -1
O=C(N[C@@H](c1ccccc1)[C@@H]1C[C@H]1C(=O)NCc1ccccn1)OCc1ccccc1 | · | · | · | -7 | 4113 | · | -9
CNCCC(Oc1ccccc1C)c1ccccc1 (configuration not stated) | 0.4 | 0 | 5 | · | · | 6 | ·
CN(c1ccccc1)c1nc(N)c([N+](=O)[O-])c(Nc2ccccc2)n1 | -3.2 | 4 | -2 | 6 | 3118 | -9 | -3
CC12CCC(C1)C(C)(C)C2OC(=O)c1ccccc1C(=O)O (configuration not stated) | 15 | 10 | 12 | 1 | 4679 | 18 | -14
COc1ccc(CCNC(=O)Cn2ccc3c(OC)cccc3c2=O)cc1OC | 1.9 | -12 | 2 | -16 | 4368 | 2 | -25
C(=NN1CCOCC1)c1nc(-c2ccccc2)n2ccccc12 | 5.3 | -4 | 9 | · | · | 5 | ·
C/C(CCc1ccccc1)=N\NC(=O)C(=O)Nc1cccc(Cl)c1 | · | · | · | 0 | 4699 | · | -43
Cc1ccc2c(c1)C(C)(C)[C@]1(C)NC(=O)CCN21 | -9.2 | 4 | 2 | 8 | 3161 | -7 | -5
COc1ccc(C(=O)NCCNc2nc3c(C)cccc3cc2C#N)cc1 | 5.0 | 10 | 10 | 0 | 3487 | 7 | -29
C(=Nc1nc2ccccc2[nH]1)c1cccs1 | 3.2 | 12 | 2 | · | · | 6 | ·
Cc1ccc(Cc2cc(-c3ccc(C)cc3)n[nH]c2=O)cc1 | 1.7 | 4 | 12 | -5 | · | 18 | -10
COc1cc(NC(=O)CN(C)S(=O)(=O)c2ccc3c(c2)CC(C)N3C(C)=O)cc(OC)c1OC (configuration not stated) | 2.8 | 4 | 6 | -7 | 6182 | 5 | -5
Cc1cc(C)c(C)c(OCCOCCN2CCOCC2)c1 | 3.8 | 12 | 0 | 1 | 8898 | 6 | -19
CC1CC(C)CN(CC(=O)N2c3ccccc3CCc3ccccc32)C1 (configuration not stated) | 5.9 | 7 | 3 | 1 | 17585* | 6 | 2
CCCCCCCCNC(=O)c1cccnc1SCC(=O)Nc1ccccc1OC | 8.0 | 15 | 0 | -4 | 10598 | -8 | -5
COCCNC(=S)N/N=C(\C)c1ccc(Cl)c(Cl)c1 | · | · | · | 3 | 4659 | · | -14
COc1ccc(OC)c(N(CC(=O)Nc2ccc3c(c2)OCCO3)S(C)(=O)=O)c1 | -16 | 7 | 7 | -10 | 2523 | -8 | -111
CC12CN3CC(C)(CN(C1)C3c1ccccc1)C2O (configuration not stated) | 6.3 | -12 | -12 | 0 | 4386 | 4 | -36
CN(C)C(=O)CN1C(=O)c2cccc3cccc1c23 | 4.3 | 0 | 0 | -10 | 3693 | 9 | -12
Cc1ccc(-n2nnnc2-c2ccccc2Br)cc1 | 5.2 | 8 | -12 | -4 | · | 8 | ·
O=C(c1ccccc1)c1ccc2nc[nH]c2c1 | 8.3 | 4 | 6 | 6 | 12233 | -2 | -28
O=C1c2cccnc2C(O)N1C1CCCCC1 (configuration not stated) | 1.0 | -3 | 11 | 9 | 23226* | -4 | -3
COc1ccc2nc(C)cc(Nc3ccccc3O)c2c1 | -7.9 | -2 | 2 | 10 | 3354 | -5 | -1
O=C(O)C1=C[C@@H](c2ccc(Br)cc2)C[C@@H](OCCCCO)O1 | · | · | · | 1 | 4129 | · | -3
CC(C)c1ccc2[nH]c3c(c2c1)C1CCN2C(=O)CCCC(C3)C12 (configuration not stated) | 7.0 | -1 | 2 | · | · | -2 | ·
CN(NC(=O)c1ccccc1Cl)c1ncc(C(F)(F)F)cc1Cl | 15 | -7 | -4 | -4 | 3445 | 7 | -30

Given in markdown: 7 of the compounds above.
| smiles | RN4220 kill | Mtb hypoxia rep | Mtb hypoxia rep growth | BJeLR lethal | Autofluor counter | ugtP null kill | PrP 5UTR inh |
| --- | --- | --- | --- | --- | --- | --- | --- |
| COc1ccc(OC)c(N(CC(=O)Nc2ccc3c(c2)OCCO3)S(C)(=O)=O)c1 | -16 | 7 | 7 | -10 | 2523 | -8 | -111 |
| CC12CN3CC(C)(CN(C1)C3c1ccccc1)C2O (configuration not stated) | 6.3 | -12 | -12 | 0 | 4386 | 4 | -36 |
| CN(C)C(=O)CN1C(=O)c2cccc3cccc1c23 | 4.3 | 0 | 0 | -10 | 3693 | 9 | -12 |
| Cc1ccc(-n2nnnc2-c2ccccc2Br)cc1 | 5.2 | 8 | -12 | -4 | · | 8 | · |
| O=C(c1ccccc1)c1ccc2nc[nH]c2c1 | 8.3 | 4 | 6 | 6 | 12233 | -2 | -28 |
| O=C1c2cccnc2C(O)N1C1CCCCC1 (configuration not stated) | 1.0 | -3 | 11 | 9 | 23226* | -4 | -3 |
| COc1ccc2nc(C)cc(Nc3ccccc3O)c2c1 | -7.9 | -2 | 2 | 10 | 3354 | -5 | -1 |

(listing goes on)
SMILES | RN4220 kill | Mtb hypoxia rep | Mtb hypoxia rep growth | BJeLR lethal | Autofluor counter | ugtP null kill | PrP 5UTR inh
COc1ccc(NC(=O)/C(C#N)=C/c2ncc([N+](=O)[O-])n2C)c(OC)c1 | 0.9 | -14 | -2 | -5 | 3743 | 1 | -14
COc1ccc(-n2cnc3cc(C(=O)N4CCOCC4)ccc32)cc1 | -1.7 | -9 | -17 | 5 | 5164 | -1 | -11
O=C(N/N=C/c1c(O)n(Cc2ccc(F)cc2)c(=O)[nH]c1=O)c1ccccc1O | -1.0 | 5 | 1 | 0 | 8482 | 4 | -29
CCOC(=O)c1cc(=O)c2ccc(OCC(=O)Nc3ccc(F)cc3)cc2o1 | -1.2 | 2 | 14 | -2 | 5609 | 9 | -19
O=C(NC(Cc1ccccc1)c1nc2ccccc2[nH]1)C1CC(=O)N(c2ccc3c(c2)OCCO3)C1 (configuration not stated) | 0.2 | -9 | 8 | 5 | 4163 | 0 | 3
CN(CC(=O)Nc1ccc(S(N)(=O)=O)cc1)c1ccccc1 | 0.8 | · | · | 5 | 3862 | 0 | -5
CCOC(=O)CN1N=C(c2ccc(Cl)cc2)CCC1=O | 1.6 | 7 | -7 | 0 | 3880 | 0 | -13
O=C(CN1CCCC1)N1c2ccccc2C=Cc2ccccc21 | -0.9 | -4 | -4 | -1 | 4202 | 2 | -53
COc1ccc(C(CCNCc2ccc(N(C)C)cc2)C(C)C)cc1 (configuration not stated) | 0.6 | 12 | -4 | 10 | 4294 | -16 | -12
CC(=NNC(=O)C(C)n1nc(C)c([N+](=O)[O-])c1C)c1ccc(OCC(N)=O)cc1 (configuration not stated) | 5.0 | 11 | 8 | · | · | 8 | ·
CC(CC(=O)O)n1nnc2ccccc21 (configuration not stated) | 0.2 | -2 | -2 | -10 | 4114 | 14 | -19
CS(=O)(=O)Nc1ccc(S(=O)(=O)Nc2nccs2)cc1 | 5.1 | 3 | 2 | -9 | 3158 | -3 | -2
Cc1ccc(/C=N/NC(=S)NC(C)C)o1 | · | · | · | -7 | 3384 | · | -5
CC1CN2C(c3ccc([N+](=O)[O-])cc3)=CSC2=N1 (configuration not stated) | -0.1 | -7 | 6 | -9 | 3934 | 7 | -12
Cc1cc2ccccc2cc1CN1CCCCC1 | 3.4 | 5 | 11 | 4 | 4264 | 9 | -16
COc1ccc(-c2ccc3c(c2)C2CC3CCN2C(=O)OCc2ccccc2)cc1 (configuration not stated) | 0.8 | -11 | -1 | · | 3820 | 83 | 8
